Screens deposited in PubChem by National Center for Advancing Translational Sciences (NCATS).
NS1 function inh: influenza NS1 inhibition; S. cerevisiae slowed by influenza A NS1, growth recovery by OD600; Potency, µM (series often up to 46.1 µM), for inactives: at the top dose activity, positive = more growth; hit rate 0.4% among 270,000; AID 2326; active means well fitted rising curve with a large enough effect; inconclusive means small, poorly fitted or top-dose-only effect; inactive means no such curve, though single readings can be large or run the other way; also: nearly all actives have a fitted effect of over 50% in size
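In this qHTS, NS1 from influenza A is expressed in budding yeast, where it slows growth. Cells are switched from glucose to 2% galactose medium (pH 6.0, -URA), treated with compound, and growth recovery is read at OD600.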
MARV entry inh: blocks Marburg virus binding to or entry into cells; hit rate 1.8% among 300,000; Potency, µM (titrated, usually from 37.8 µM), for inactives: at the highest dose activity change, negative = inhibition, actives largely listed as inhibitors; Marburg virus pseudotyped entry inhibition, cell reporter; control for the full effect not named in the record; about a third of the inactives were read at about 46 µM; active = well fitted inhibition curve with a large enough effect; inconclusive = small, poorly fitted or top-dose-only effect, or effect the other way; inactive = flat fitted curve, though single readings scatter; tested in HEK293 cells; about a fifth of its hits are not listed in these tables; also: % is scaled to controls: 0 for no effect and ±100 for the full control effect; luciferase read-out
Cruzain inh Det: cruzain (T. cruzi) inhibition with detergent. hit rate 0.43% among 200,000. purified cruzain, Z-FR-AMC fluorescence, 0.01% Triton. AID 1478. Potency, µM, for inactives: max response, negative = inhibition, usual class: inhibitors;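 also: plate controls were neutral wells for no effect and buffer without enzyme for full effect; nearly all actives have a fitted effect of over 40% in size; top concentration of the series not given in the record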
Target sequence (P25779 123-467 limits assumed): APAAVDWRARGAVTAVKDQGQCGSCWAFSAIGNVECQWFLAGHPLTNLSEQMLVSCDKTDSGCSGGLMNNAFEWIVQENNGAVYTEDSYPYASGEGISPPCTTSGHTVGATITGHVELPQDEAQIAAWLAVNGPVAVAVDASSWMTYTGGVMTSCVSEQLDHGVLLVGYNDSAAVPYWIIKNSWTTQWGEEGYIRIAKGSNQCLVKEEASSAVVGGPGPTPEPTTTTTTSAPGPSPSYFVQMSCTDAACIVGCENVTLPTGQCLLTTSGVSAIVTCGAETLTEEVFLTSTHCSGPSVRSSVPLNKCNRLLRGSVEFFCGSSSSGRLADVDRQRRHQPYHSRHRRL
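Cruzain (1.5 nM) preincubated 15 min at RT with compound in 100 mM sodium acetate pH 5.5, 5 mM DTT, 0.01% Triton X-100. Reaction started with 2 uM Z-FR-AMC; AMC fluorescence (ex 360/em 450 nm) change over 60 s gave rate.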
StopGo reporter: FMDV 2A StopGo reporter, luciferase signal; human cells with a luciferase reporter of 2A StopGo recoding; control for the full effect not named in the record; Potency, µM (titrated, usually from 57.9 µM), for the others: at the top dose signal change, negative = less light; hit rate 1.2% among 410,000; AID 1159524; active = well fitted falling curve with a large enough effect; inconclusive = small, poorly fitted or top-dose-only effect; inactive = no such curve, though single readings can be large or run the other way; tested in HEK293T cells; also: % is scaled to controls: 0 for no effect and ±100 for the full control effect; nearly all actives have a fitted effect of over 45% in size; luciferase light after 4 h
Lassa entry inh: blocks Lassa virus binding to or entry into cells; AID 540256; Potency, µM (top dose mostly 37.9 µM), inactives show top-dose activity change, negative = inhibition, actives largely listed as inhibitors; Lassa virus pseudotype entry inhibition, cell reporter; control for the full effect not named in the record; hit rate 1.2% among 300,000; active means well fitted inhibition curve with a large enough effect; inconclusive means small, poorly fitted or top-dose-only effect, or effect the other way; inactive means flat fitted curve, though single readings scatter; tested in HEK293 cells; also: % is scaled to controls: 0 for no effect and ±100 for the full control effect; nearly all actives have a fitted effect of over 50% in size; luciferase read-out
Cruzain noTriton: inhibitors of Trypanosoma cruzi cruzain without detergent. P25779. purified cruzain, Z-FR-AMC fluorescence, no detergent. Potency, µM, without a hit: max response, negative = inhibition, hits mostly inhibitors. hit rate 2.3% among 200,000;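 also: plate controls were enzyme without inhibitor for no effect and buffer without enzyme for full effect; nearly all actives have a fitted effect of over 40% in size; top concentration of the series not given in the record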
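Purified cruzain at 1.5 nM, pre-incubated 15 min with compound at room temperature in 100 mM sodium acetate pH 5.5, 5 mM DTT, 0.00005% Triton X-100. Reaction started with 2 uM Z-FR-AMC; AMC fluorescence increase over 60 s gives rate.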
SARS PLP yeast: SARS-CoV PLP inhibition in yeast. Potency, µM (titrated, usually from 32.9 µM), for the others: top-dose activity, positive = growth rescue. S. cerevisiae expressing SARS-CoV PLpro, growth rescue; control for the full effect not named in the record. hit rate 0.19% among 330,000; active means well fitted rising curve with a large enough effect; inconclusive means small, poorly fitted or top-dose-only effect; inactive means no such curve, though single readings can be large or run the other way; also: 0% is about no effect; nearly all actives have a fitted effect of over 55% in size; growth read by luminescence after 48 h
RE007 growth inh: less growth of the S. pombe RE007 Vpr strain; S. pombe RE007 Vpr strain, BacTiter-Glo ATP luminescence, 24 h; control for the full effect not named in the record; Potency, µM (highest dose often 92.2 µM), for inactives: at the highest dose activity change, negative = less growth; hit rate 0.21% among 360,000; active = well fitted falling curve with a large enough effect; inconclusive = small, poorly fitted or top-dose-only effect; inactive = no such curve, though single readings can be large or run the other way;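 also: % is scaled to controls: 0 for no effect and ±100 for the full control effect; nearly all actives have a fitted effect of over 50% in size; the assay follows cell death caused by Vpr and the record does not say whether a fall means rescue or toxicity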
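Fission yeast strain RE007, carrying one chromosomally integrated HIV-1 vpr copy, was seeded at OD 0.01 in PMG+AL medium with 23 nL pinned compound. After 24 h at 30 °C and 99% humidity, viability was read by BacTiter-Glo luminescence.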
Active calls of the source: *; ? = inconclusive; . = no result given; & = joins results of further samples; [ ] = remark or other dose. Unless noted, calls follow the shape of the dose curve; as a rule, active = well fitted curve in the direction sought with a large enough effect; inconclusive = small, poorly fitted or top-dose-only effect, or another doubt; inactive = no such curve, though single readings can be large; an effect the other way counts as inactive or inconclusive. Potency is read from the fitted curve at half-maximal effect.

SMILES	NS1 function inh	MARV entry inh	Cruzain inh Det	StopGo reporter	Lassa entry inh	Cruzain noTriton	SARS PLP yeast	RE007 growth inh
O=C(Cn1c(=O)n(CC2CCCO2)c(=O)c2ccccc21)Nc1ccc(F)cc1F (stereo not drawn)	.	-0.1%[46.1 µM]	-0.9%	-14.0%	3.2%[46.1 µM]	11.4%	.	.
COc1ccc(-c2noc(CN(C(=O)Cc3ccc(C)cc3)C(C)C)n2)cc1	.	?	-2.7%	?	?	11.1%	.	.
COc1cc2c(cc1OC)CN(C(=O)c1cc(S(=O)(=O)N3CCCCC3)ccc1Cl)CC2	-18.6%	?	.	0.0%	-0.9%[46.1 µM]	.	-12.3%	-5.4%
Cc1ccc(N2C(=O)c3cccc(Oc4ccc(Cl)cc4)c3C2=O)c(C)c1	0.7%	-3.3%	-4.8%	-26.7%	-0.6%	?	-9.3%	-1.0%
N#Cc1c(-c2cccc(Br)c2)cc(-c2cccnc2)nc1N	24.7%	?	6.1%	?	-11.0%	1.6%	?	9.4%
O=[N+]([O-])c1c(C(Cl)Cl)nn(-c2ccccc2)c1N1CCOCC1	-1.5%	11.3%[46.1 µM]	.	-17.6%	?	.	1.2%	-6.4%
CC(C)CC(=O)NC(C)C(c1cccs1)N1CCOCC1 (stereo not drawn)	-5.6%	.	.	-0.5%	.	.	1.9%	-2.2%
N#Cc1c(/N=C/c2ccco2)sc2c1CCC2	2.2%	0.1%	8.4%	9.9%	3.7%	?	0.1%	0.0%
COc1cccc2c1cc1c(=O)n(CC(=O)N3CCN(c4cc(Cl)ccc4C)CC3)nc(C)n12	.	-14.9%[46.1 µM]	-1.3%	?	.	3.8%	.	.
O=C(CCNC(=O)c1ccc([N+](=O)[O-])cc1)Nc1nc2ccccc2[nH]1	.	13.2%[46.1 µM]	.	21.0%	1.4%	.	-11.9%	-10.1%
Cn1ncc(Br)c1C(=O)NC1CCCCC1	12.9%	19.4%[46.1 µM]	.	2.6%	22.8%[46.1 µM]	.	0.0%	-7.5%
O=C(NCc1cccnc1)Nc1ccccc1Cl	-6.5%	.	.	-2.5%	.	.	4.5%	4.1%
Cc1cccc(NC(=O)c2ccc(S(=O)(=O)NCc3cccnc3)cc2)c1	0.3%	-23.4%[46.1 µM]	.	?	-9.4%	.	2.5%	-11.2%
Cc1ccc(CN(CC(=O)NCCc2ccccc2)C(=O)CCCC(=O)Nc2cc(C)on2)cc1	-7.6%	2.8%&2.8%	-5.0%	28.9%	-23.5%	9.6%	-2.4%	-12.7%
CC(C)CC(NC(=O)c1ccc(Cl)cc1)C(=O)O (stereo not drawn)	3.2%	?	1.9%	18.8%	16.0%	2.0%	0.2%	1.2%
OCCN1CCN(Cc2nc(-c3cccc(Cl)c3)no2)CC1	3.7%	?	.	5.3%	?	.	0.4%	-0.4%
CC(C)(C)c1ccc(SCC(N)=O)cc1	-7.0%	-7.1%	-0.8%	-6.1%	7.5%	13.9%	.	4.7%
Cc1ccc(S(=O)(=O)NCCc2nc3ccccc3[nH]2)cc1	-3.8%	-2.0%[46.1 µM]	.	26.4%	-0.1%[46.1 µM]	.	-2.2%	-5.6%
CC1CCN(CCCNC(=O)Cn2ncc3c([nH]c4ccccc43)c2=O)CC1	24.1%	-16.2%[46.1 µM]	.	-1.0%	?	.	-1.5%	5.2%
CCOC(=O)CSc1nnc(CNc2ccc(Cl)cc2)n1-c1ccccc1	-196.8%	-3.3%	-3.3%	.	5.2%	27.2%	-41.8%	-8.3%
CCOC(=O)c1cnn(-c2ccccc2)c1NC(=O)CSc1nnc(-c2cccs2)n1CC	-8.1%	-2.0%	-1.0%	-11.5%	-27.1%	-4.0%	1.1%	4.9%
COc1cccc(CNC(=O)CSc2ccc(-c3ccco3)nn2)c1	.	2.5%[46.1 µM]	.	-6.2%	12.1%	.	0.2%	5.3%
Cc1ccc(NC(=O)Cn2c(=O)n(Cc3ccc(C(=O)NCc4ccc5c(c4)OCO5)cc3)c(=O)c3ccccc32)cc1	.	-29.5%[46.1 µM]	-3.9%	-24.8%	5.8%[46.1 µM]	?	.	.
CCCCN1Cc2cc(C(=O)c3cc(F)ccc3O)cnc2NC1=O	-4.5%	-19.7%	-6.8%	-25.9%	-4.3%	-11.5%	3.1%	4.8%
CCc1cc2ccc(C)cc2nc1SCC(=O)N1CCN(C(=O)c2ccco2)CC1	-48.9%	?	-16.5%	0.0%	?	?	-2.1%	-3.0%
CCNC(=S)NCCN1CCOCC1	8.5%	-3.5%	3.9%	-5.9%	3.5%	-10.2%	24.9%	.
Cc1ccccc1NC(=O)c1cc(S(=O)(=O)Nc2cccc(C(=O)O)c2)ccc1Cl	0.9%	.	.	-10.5%	.	.	-1.9%	-2.6%
CCCCN1C2CCCC1CC(NC(=O)c1ccc(OC)c(OC)c1)C2 (stereo not drawn)	-3.2%	?	4.6%	0.0%	13.6%	-0.8%	-1.2%	-17.1%
N#Cc1c2ccc(OCC(=O)NCc3ccco3)cc2n2ccccc12	2.3%	-1.3%[46.1 µM]	.	-1.6%	11.0%	.	-1.5%	-16.0%
O=C(CN1CCN(S(=O)(=O)c2ccccc2F)CC1)NC1CCCC1	2.8%	4.6%[46.1 µM]	.	-10.9%	-27.2%	.	-0.2%	3.5%
CCCCc1ccc(NC(=O)C2CCCC2)cc1	.	?	.	37.1%[activator]	?	.	.	2.0%
CCOC(=O)c1cc2c(ccn2C)n1CC(=O)N1CCC(C)CC1	11.8%	-76.6%	-4.2%	-6.4%	-3.6%	2.6%	0.4%	33.7%
NC(Cc1ccc(OC(F)F)cc1)C(=O)O (stereo not drawn)	2.8%	.	.	-11.1%	.	.	0.7%	7.8%
COc1ccc(-c2coc3cc(O)cc(O)c3c2=O)cc1	-6.3%	?	-11.9%&-14.3%&-14.9%	13.1%&6.4%	?	-6.4%&7.6%&-10.5%	-42.3%	-2.8%[18.4 µM]
S=C(Nc1cccc(Cl)c1)N(CCCN1CCCC1)Cc1cccn1Cc1ccc(Cl)cc1	.	?	.	-23.9%	?	.	-2.2%	-0.9%
O=C(Nc1ccc(F)cc1)Nc1sccc1-c1nc2ccccc2s1	-0.3%	-14.3%[46.1 µM]	.	0.4%	?	.	0.6%	-8.4%
O=C(NCCC1=CCCCC1)c1cc(-c2ccccn2)nc2ccccc12	.	7.3%[46.1 µM]	.	-11.2%	18.7%	.	0.7%	3.6%
COc1ccc(Cl)cc1NC(=O)CN(C)CC(=O)Nc1cccc(S(=O)(=O)N2CCCC2)c1	.	?	.	?	?	.	0.1%	-4.7%
O=C(c1ccccc1)N1CCCC(c2nc3c(nnn3Cc3ccccc3)c(=O)[nH]2)C1 (stereo not drawn)	0.1%	-1.8%	3.0%	-14.7%	50.9%[14.3 µM]	4.6%	-1.5%	0.7%
CCOC(=O)C1(C)NC(c2ccc(N(C)C)cc2)C2C(=O)N(CC)C(=O)C21 (stereo not drawn)	1.6%	24.3%	3.8%	2.7%	18.6%	1.2%	-1.6%	5.7%
c1nc(Nc2ccc(N3CCOCC3)cc2)c2ccsc2n1	3.6%	6.4%[46.1 µM]	.	34.0%[activator]	6.6%	.	-2.7%	-1.1%
CCN(CC)CCCNC(=O)C1c2cc(OC)c(OC)cc2C(=O)N(C)C1c1cccs1 (stereo not drawn)	-1.3%	-7.2%	11.1%	42.6%[activator]	5.6%	2.4%	-0.3%	0.7%
Cc1cc(C)n2nc(CC(=O)NCc3ccc(F)cc3)nc2n1	1.6%	5.7%	-1.4%	11.0%	12.3%	-15.0%	2.5%	-0.6%
Cc1ccc(NC(=O)C2CCCN2C(=O)NCc2ccccc2)cc1 (stereo not drawn)	-0.6%	-0.6%[46.1 µM]	.	1.4%	-5.4%	.	0.1%	-15.8%
N#Cc1c(NC(=O)COC(=O)c2nccnc2N)sc2c1CCCC2	.	?	.	15.6%	8.3%[46.1 µM]	.	-6.2%	0.2%
O=C(COc1ccccc1F)NNC(=O)c1ccc(F)c(S(=O)(=O)N2CCOCC2)c1	.	-22.1%	.	-22.7%	11.9%	.	-2.9%	32.9%
Cc1ccc(S(=O)(=O)NCc2ccccc2C)cc1	-8.5%	.	.	83.2%[activator]	.	.	-0.6%	5.9%
Cc1noc(C)c1COc1ccc(C(=O)N2CCN(c3ccccn3)CC2)cc1	.	-4.4%	.	?	14.1%	.	-4.5%	-2.2%
COc1cccc(C(=O)C2CCCN(Cc3c(C)n(C)n(-c4ccccc4)c3=O)C2)c1 (stereo not drawn)	8.4%	.	.	-4.5%	.	.	5.0%	-1.8%
CCN(CC(=O)Nc1c(F)cccc1F)C(=O)CCOc1ccccc1	.	10.2%	.	1.7%	-1.2%	.	-1.3%	-16.3%
CN1CCN(Cc2nc(Cc3ccccc3)no2)CC1c1ccccc1 (stereo not drawn)	-5.9%	?	.	0.7%	.	.	-0.6%	-20.1%
Cn1cc(C(=O)C(=O)N2CCN(c3ccccc3)CC2)c2ccccc21	.	-9.4%[46.1 µM]	.	-6.3%	5.9%	.	0.5%	16.7%
Brc1ccc(-c2nc(-c3ccncc3)no2)o1	6.3%	13.7%	-4.9%	61.0%[activator]	?	1.8%	0.0%	-6.8%
COCc1c(C(=O)N2CCN(c3ccccc3C)CC2)oc2ccccc12	.	?	.	-2.0%	-23.1%	.	.	11.3%
CC(=O)N1c2ccc(S(=O)(=O)N3CCC(C(=O)Nc4cc(C)cc(C)c4)CC3)cc2CC1C (stereo not drawn)	28.5%	.	.	-23.9%	.	.	-6.7%	6.9%
O=C(Cn1nc(-c2ccc(F)cc2)ccc1=O)Nc1ccc(C(=O)NC2CC2)cc1	-3.3%	1.3%	-2.6%	-0.8%	0.0%	1.9%	2.9%	-1.2%
O=S(=O)(Nc1cccc(-c2cn3cccnc3n2)c1)c1ccccc1	12.1%	6.7%	-20.7%	-11.6%	-16.9%	?	1.6%	-16.9%
CC12CCC(=O)N1C(C(=O)OCC(=O)Nc1ccc(S(N)(=O)=O)cc1)CS2 (stereo not drawn)	8.3%	-1.7%	-0.5%	-22.6%	-0.5%	-1.1%	19.9%	-6.0%

No enrichment for hits. About 4.6% of those tested had a hit in this group.
